From PubChem
Mtb MenB inh – inhibitors of Mycobacterium tuberculosis MenB enzyme | P9WNP5 | MenB enzyme assay, absorbance read-out; some hits fall short of the stated cut | inhibition, %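 (about 12 µg/mL by stock and volumes)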 | 100,000 compounds, 0.43% hits | AID 540299;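 active = mean of two replicates above 30%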;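 also: 0% = no compound and 100% = wells with inactive enzyme; the first replicate is given; strong numbers were not always called active; inactives centre near -10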
Target sequence (P9WNP5 whole entry, looked up): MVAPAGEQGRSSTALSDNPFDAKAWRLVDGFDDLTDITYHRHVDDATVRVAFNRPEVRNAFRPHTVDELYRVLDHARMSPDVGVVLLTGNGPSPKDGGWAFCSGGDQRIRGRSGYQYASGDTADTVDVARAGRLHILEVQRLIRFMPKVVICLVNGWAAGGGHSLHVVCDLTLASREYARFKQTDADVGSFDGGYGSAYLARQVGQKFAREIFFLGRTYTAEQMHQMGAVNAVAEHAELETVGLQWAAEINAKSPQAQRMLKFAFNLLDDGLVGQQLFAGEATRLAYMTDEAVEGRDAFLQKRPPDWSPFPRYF
PV pol inh – poliovirus RNA polymerase inhibition; P03300; poliovirus polymerase elongation, fluorescence polarization; stronger effect = lower value; % elongation, % (compound at 16.7 µg/mL); 150,000 compounds, 0.66% hits; AID 588519; in the data active = % elongation below about 90%; also: some results filed as inactive read as strong as hits
Target sequence (P03300 1749-2209 limits assumed): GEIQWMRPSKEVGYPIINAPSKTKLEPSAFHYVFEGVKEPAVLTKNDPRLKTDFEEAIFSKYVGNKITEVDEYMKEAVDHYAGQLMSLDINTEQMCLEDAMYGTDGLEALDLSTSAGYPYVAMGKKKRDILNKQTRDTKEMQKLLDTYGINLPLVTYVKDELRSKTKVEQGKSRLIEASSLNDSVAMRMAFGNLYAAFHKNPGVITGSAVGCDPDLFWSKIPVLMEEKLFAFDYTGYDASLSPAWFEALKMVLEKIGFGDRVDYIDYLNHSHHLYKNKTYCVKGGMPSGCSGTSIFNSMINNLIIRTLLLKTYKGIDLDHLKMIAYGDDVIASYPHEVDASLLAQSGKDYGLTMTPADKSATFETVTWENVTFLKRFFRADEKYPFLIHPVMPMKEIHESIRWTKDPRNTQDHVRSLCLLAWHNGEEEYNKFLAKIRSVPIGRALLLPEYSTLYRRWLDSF
Mtb MbtI inh – inhibitors of Mycobacterium tuberculosis siderophore enzyme MbtI | 100,000 compounds, 0.89% hits | inhibition, %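 (about 17 µg/mL by stock and volumes)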 | purified MbtI enzyme, fluorescence intensity read-out;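 active = above 50% in both replicates, above 80% if mildly self-fluorescent; inactive = the rest, strongly fluorescent compounds included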;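 also: 0% = mean of negative and 100% = mean of positive controls; one replicate is shown; some compounds called inactive have numbers as strong as hits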
PV pol inh intensity – further read-out of PV pol inh, marked with its call; % elongation; measured here: total intensity read-out; formula for this scale not given here;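 total fluorescence in place of polarization; lower means less elongation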
Active calls of the source: *; . = no result given; & = joins results of further samples.

| SMILES | Mtb MenB inh | PV pol inh | PV pol inh intensity | Mtb MbtI inh |
| --- | --- | --- | --- | --- |
| COCCN1C(=O)c2ccccc2C(C(=O)N2CCCC2)C1c1c[nH]c2ccccc12 (stereo not given) | -2 | 104 | 106 | 0 |
| CN1CCC(NCc2ccccc2)CC1 | -19 | 104 | 103 | 3 |
| CC(Sc1ncnc2ccccc12)C(=O)O (stereo not given) | -48 | 105 | 101 | -18 |
| O=C1COc2cc(S(=O)(=O)CCC(=O)N3CCCCC3)c(Cl)cc2N1 | 1 | 101 | 102 | -12 |
| CCCCN1Cc2c(n(CC(=O)c3ccc(OC)cc3)c3cc(-c4ccccc4)nn3c2=O)C1=O | 18 | 105 | 115 | 4 |
| CSc1sc(C#N)c2c1C(=O)CC(c1ccc(C)cc1)C2 (stereo not given) | -7 | 103 | 106 | 1 |
| CC1CCN(C(=O)c2ccc3c(c2)C(=O)N(CCC2=CCCCC2)C3=O)CC1 | -17 | 100 | 96 | 0 |
| CC(CC(=O)c1cccs1)CC(=O)c1cccs1 | -20 | 102 | 100 | 4 |
| CC(C)C(C)(C#N)NC(=O)Cn1cc(Br)ccc1=O (stereo not given) | -16 | 101 | 105 | 19 |
| O=C(CSc1nc2c(sc3ccccc32)c(=O)n1Cc1ccccc1)NCCC1=CCCCC1 | 2 | 101 | 102 | 19 |
| Clc1ccc2nc(N3CCCC3)sc2c1 | -26 | 102 | 107 | 3 |
| COc1cccc2c1O/C(=N\O)C(C(=O)Nc1cccc(Br)c1)C2 (stereo not given) | 15 | 99 | 100 | 5 |
| O=C1CCc2c(ccc3ccccc23)O1 | 1 | 98&99 | 104&101 | -500 |
| CCCCNC(=O)c1ccc(NS(=O)(=O)CC)cc1 | 5 | 100 | 103 | -41 |
| CSc1ccccc1NC(=O)CO/N=C(\C)c1cc2ccccc2o1 | 0 | 105 | 110 | -11 |
| Cc1cc(C)n2nc(SCc3ccc(Cl)cc3)nc2n1 | . | 103 | 107 | -14 |
| CNC(=O)c1nc(-c2ccccc2)oc1C | -3 | 102 | 100 | 10 |
| CCCSc1nnc2c(n1)OC(C)=Nc1ccc(Br)cc1-2 | 15 | 100 | 101 | 7 |
| C/C(=N\N=C(c1ccccc1)c1ccccc1)c1ccco1 | -2 | 104 | 109 | -8 |
| Cc1ccc(CNC(=O)c2nc3c(nnn3Cc3ccco3)c(=O)[nH]2)cc1 | -11 | 101 | 102 | 4 |
| Cc1ccc(S(=O)(=O)N2Cc3ccccc3C2)cc1 | -6 | 99 | 98 | -2 |
| CCC(CC)NC(=O)Cc1ccccc1OC | -5 | 102 | 102 | . |
| CCOC(=O)NC(=O)Cn1nnc(-c2ccccc2C)n1 | 3 | 102 | 111 | -8 |
| CCCC(=O)n1c(=O)oc2cc(Br)ccc21 | -4 | 99 | 105 | . |
| CCC1COC(c2cccn2Cc2ccc(F)cc2Cl)=N1 (stereo not given) | -11 | 105 | 103 | -9 |
| COc1ccc(-c2nnc(SCC(=O)Nc3ccc4[nH]c(=O)[nH]c4c3)n2C2CCCCC2C)cc1 (stereo not given) | -31 | 108 | 104 | -6 |
| C(=N\n1cnnc1)/c1ccc(-c2ccccc2)cc1 | -2 | 105 | 100 | 82 |
| CN1CCN(S(=O)(=O)c2ccc(NN)nc2)CC1 | -14 | 108 | 99 | 135 |
| O=C(COC(=O)c1ccc(S(=O)(=O)N2CCCC2)cc1)Nc1ncc(Cl)cc1Cl | -26 | 111 | 121 | -11 |
| N#Cc1ccc(COC(=O)c2ccccc2-c2ncc(-c3ccccc3)o2)cc1 | -32 | 106 | 108 | 103 |
| CC12CCCCC1CCC2NCCCCCCN1C(=O)C=CC1=O (stereo not given) (tested in a mixture with another compound) | -3 | 101&99 | 100&98 | 44 |
| O=C1CSC(=Nc2ccccc2)N1Cc1ccccc1 | -12 | 100 | 103 | 6 |
| CC(OC(=O)/C=C/c1ccc(Br)o1)C(=O)Nc1ccc2c(c1)OCO2 (stereo not given) | 11 | 118 | 130 | 10 |
| COc1ccc2nc3oc(C(=O)Nc4cccc(SC)c4)cc3cc2c1 | 0 | 103 | 102 | 118 |
| O=C(Nc1ccccc1F)C1CCCC1 | -7 | 101 | 103 | -18 |
| O=C(CSc1ccc2c(c1)OCCO2)c1ccc[nH]1 | -33 | 108 | 106 | 30 |
| Nc1ncc(C(O)(C(F)(F)F)C(F)(F)F)s1 | -15 | 98 | 101 | -8 |
| CC(=O)Nc1nc2ccccc2nc1Cl | . | 100 | 99 | 2 |
| CSC(=S)N(C)c1ccccn1 | . | 98 | 104 | -6 |
| CCCCOC(=O)Nc1ccccc1C(N)=O | 5 | 101 | 103 | -2 |
| O=c1ccc(-c2ccccc2)nn1Cc1ccncc1 | -16 | 103 | 107 | 29 |
| CC(=O)Nc1ccc(Nc2cc(C(F)(F)F)nc3ncnn23)cc1 | 4 | 102 | 104 | 22 |
| O=C(NCSc1nc2ccccc2s1)c1ccco1 | -38 | 102 | 104 | . |
| CC1(C)CC2CC(C)(CN2C(=O)COC(=O)c2ccc3c(c2)OCCO3)C1 (stereo not given) | -20 | 103 | 109 | -1 |
| Cc1ccc(OCc2ccccc2C(=O)Nc2nccs2)cc1 | -11 | 96 | 100 | . |
| CSc1sc(C(=O)/C=C/N(C)C)c(-c2cccs2)c1C#N | -17 | 102 | 109 | 2 |
| C=CCOc1ccc(CN(C)CC(O)COc2ccccc2C(C)C)cc1 (stereo not given) | -22 | 102 | 102 | 11 |
| C(=C\c1ccccc1)/C=N/Nc1nc2ccccc2[nH]1 | -46 | 105 | 107 | 29 |

Six structures already listed, sorted by heavy-atom count, lowest first.
| SMILES | Mtb MenB inh | PV pol inh | PV pol inh intensity | Mtb MbtI inh |
| --- | --- | --- | --- | --- |
| CCCC(=O)n1c(=O)oc2cc(Br)ccc21 | -4 | 99 | 105 | . |
| CCCCNC(=O)c1ccc(NS(=O)(=O)CC)cc1 | 5 | 100 | 103 | -41 |
| O=C1CSC(=Nc2ccccc2)N1Cc1ccccc1 | -12 | 100 | 103 | 6 |
| C/C(=N\N=C(c1ccccc1)c1ccccc1)c1ccco1 | -2 | 104 | 109 | -8 |
| CC(OC(=O)/C=C/c1ccc(Br)o1)C(=O)Nc1ccc2c(c1)OCO2 (stereo not given) | 11 | 118 | 130 | 10 |
| COc1ccc2nc3oc(C(=O)Nc4cccc(SC)c4)cc3cc2c1 | 0 | 103 | 102 | 118 |

Next part.
| SMILES | Mtb MenB inh | PV pol inh | PV pol inh intensity | Mtb MbtI inh |
| --- | --- | --- | --- | --- |
| Cc1csc(=O)n1CCC(=O)OCC(=O)c1ccc(S(=O)(=O)N2CCCCC2)cc1 | -11 | 105 | 111 | -3 |
| CCn1c(SCC(N)=O)nc2ccccc21 | -33 | 104 | 103 | -5 |
| O=C1C(Cc2ccccc2)N=C(N2CCN(c3ccc(Cl)cc3)CC2)N1c1ccccc1 (stereo not given) | -25 | 103 | 103 | 18 |
| Cc1ccc(C(=O)NCC(=O)O)s1 | . | 102 | 105 | 0 |
| Cc1cc(C(=O)NN)c2cc(Br)ccc2n1 | 0 | 101 | 101 | 0 |
| CN(C)C(=O)C1CC(=O)N(c2ccc(Cl)cc2)C1 (stereo not given) | -24 | 105 | 103 | -6 |
| O=S(=O)(NN=Cc1cn(-c2ccccc2)nc1-c1ccco1)c1ccc(Cl)cc1 | -5 | 102 | 103 | 90* |
| CCOc1ccc2[nH]c(=S)[nH]c2c1 | -7 | 103 | 101 | 75 |

Continued:
structure,Mtb MenB inh,PV pol inh,PV pol inh intensity,Mtb MbtI inh
CCN1C(=O)/C(=C\C=C2/Sc3ccc(Cl)cc3N2C)SC1=S,-20,106,111,2
COc1ccc(CNC(=O)C2CC(=O)N=C(N)S2)cc1 (stereo not given),-27,102,91,-15
CCCCN(C(=S)Nc1cccc(C)c1)c1c(N)n(CCC)c(=O)[nH]c1=O,-10,108,114,3
c1ccc(CNC2=NCCCCC2)cc1,.,103,101,-11
O=C1/C(=C/c2cccnc2)CC/C1=C\c1cccnc1,-4,101,99,1
COc1ccc(C(=O)CSc2nc3c([nH]2)c(=O)n(C)c(=O)n3C)cc1,-30,101,98,-6
CC(=O)OC1CCC([N+](C)(C)C)C(OC(C)=O)C1[N+](C)(C)C (stereo not given),-2,105,110,.
COc1ccccc1Oc1c(F)c(F)nc(N2CCCCC2)c1F,13,102,101,5
COc1ccc(CCN(Cc2nc3ccccc3c(=O)[nH]2)C(=O)C(C)C)cc1,9,102,102,13
CCC1(CC)Cc2ccccc2C(=O)N1,4,101,105,-6
Cc1cc2c(cc1S(=O)(=O)NCCN1CCN(c3ccccc3F)CC1)OCC(=O)N2,10,103,103,8
CCc1ccc(C2C(C(=O)OC)=CNC=C2C(=O)OC)cc1,-35,107,107,.
Cc1cc(C2=NNC(=NCC3CCCO3)SC2)c(C)n1-c1c(C)n(C)n(-c2ccccc2)c1=O (stereo not given),-25,108,109,6
Cc1ccc(S(=O)(=O)NC(=O)NC(C)C2CC3CCC2C3)cc1 (stereo not given),4,102,100,-6
COC(=O)c1ccccc1NC(=O)CNCCc1ccc(OC)c(OC)c1,-16,98,104,-4
CCC(CC)C(=O)Nc1cccc(I)c1,0,98,104,-22
O=C(O)C1CCCN1C(=O)Nc1ccc(Br)cc1 (stereo not given),-1,101,102,-13
CC(C)NS(=O)(=O)c1cccc(C(=O)O)c1,6,99,102,11
CCC(C)c1ccc(NC(=S)NC(=O)c2ccco2)cc1 (stereo not given),-52,101,106,8
c1ccc(Nc2nc(CN3CCN(c4ncccn4)CC3)cs2)cc1,-9,105,112,0
Cc1onc(-c2ccccc2)c1C(=O)NC1CCOc2ccccc21 (stereo not given),-26,105,108,-8
S=C(NC1CCCCC1)C(=S)NC1CCCCC1,10,82*,85*,37
O=C(COC(=O)/C=C/c1ccco1)NC1CCCCC1,.,101,99,0
CCOc1ccc(N2C(=O)c3ccccc3NC2(CC)CC)cc1,-12,101,101,-6
O=C1c2ccncc2C(=O)N1Cc1ccccc1,17,101,100,-2
Cc1nnc(NNC(=O)c2ccc(C#N)cc2)[nH]c1=O,-25,100,101,7
FC(F)(F)C(F)(F)C(F)(F)c1nnc2ccc(N3CCOCC3)nn12,13,99,101,-7
O=C(CCCn1nc(-c2ccccc2)c2ccccc21)N1CCc2ccccc21,-22,102,105,-25
CSc1ccc(-c2ccc(C(=O)O)c(Cl)n2)cc1,-48,105,103,89
CCn1cc(C(=O)NC2CCCCCC2)c(=O)c2ccc(C)nc21,3,100,104,-4
CC(NCc1cn(Cc2ccccc2)nc1-c1cccnc1)c1ccc(-n2ccnc2)cc1 (stereo not given),-8,94,96,7
Cc1cc(CO)cc(C)c1Br,0,100,102,-8
CNc1c(NS(=O)(=O)c2ccc(Cl)cc2)c(=O)oc2ccccc12,-21,103,104,24
COc1ccc(-c2n[nH]c(C)c2-c2ccccc2)c(O)c1,-58,101,100,1
O=C(COc1ncnc2sccc12)c1ccc2c(c1)OCCO2,5,106,112,-3
Nn1c(Cc2cccc3ccccc23)nnc1SCC(=O)N1CCCC1=O,-32,103,104,19
C=CCSC1=C(C#N)C(c2ccccc2OC)C(C#N)C(=O)N1 (stereo not given),-40,104,103,-22
C[S+](C)c1ccccc1,10,102,101,-6
O=C(CSc1nc2c(c(=O)[nH]1)CCC2)N1CCCCCC1,-10,101,104,22
O=C(COCC(=O)N1CCc2ccccc21)N1CCc2ccccc21,.,102,99,-7
Cn1c(=O)cc(SCC(=O)NC2CCCCC2)c2ccccc21,-4,102,105,5
N#Cc1c(NC(=O)COC(=O)C2CC3C=CC2C3)oc(-c2ccccc2)c1-c1ccccc1 (stereo not given),-10,100,90,-28
CCOC(=O)c1cnn2c(C(F)(F)F)cc(C)nc12,-13,101,105,7
O=c1c2c3nc4ccccc4nc3n(-c3cccc(Br)c3)c2ncn1CC1CCCO1 (stereo not given),-17,104,99,-24
CCCCCCc1nc(SCN2C(=O)c3ccccc3C2=O)c2c(=O)n(C)c(=O)n(CCC)c2n1,-9,105,103,-11
COC(=O)c1ccccc1NC(=O)Cc1coc2c(C)c(C)ccc12,-40,104,103,-2
COc1ccccc1-c1nnc(NC(=O)c2ccccc2S(C)(=O)=O)o1,-33,104,107,2
CC(=O)N1N=C(c2ccccc2)OC1(C)CC(=O)Nc1ccccc1 (stereo not given),-21,102,103,-46
CCOc1ccc(CCNC(=O)C2CCN(S(=O)(=O)c3cccc4nonc34)CC2)cc1OCC,-21,103,102,-22
O=C(c1cccc(Br)c1)N(C(=O)c1cccc(Br)c1)c1ncccn1,.,100,106,-8
CC1CCC(Nc2nnnn2-c2ccccc2)CC1 (stereo not given),-87,104,101,-4
CC1(C)C(c2ccccc2)=[N+]([O-])C2(CCCCC2=NNC(N)=O)N1O (stereo not given),-19,102,102,-4
COc1cc(CN(C)Cc2cc(=O)n3ccsc3n2)ccc1OC(F)F,2,104,112,3
CC(C)=N/N=C1\NC(=O)C(Cc2ccccc2)S1 (stereo not given),1,100,104,-2
CC(C)NS(=O)(=O)c1ccc2nc(NC(=O)c3cccnc3)sc2c1,-8,100,106,1
NNC(=O)CNC(=O)c1ccco1,2,104,104,-2
S=C(NCCCN1CCOCC1)N(Cc1ccccc1)Cc1ccccc1,-13,102,107,-1
COc1cccc(/C=N/NC(=O)c2ccccc2O)c1,11,102,102,7
CCC(c1nc2ccccc2c(=O)n1-c1ccccn1)N1C(=O)c2ccccc2C1=O (stereo not given),3,101,103,-6
CCOc1ccc(Nc2oc(COc3ccccc3Cl)nc2C#N)cc1,-2,106,102,11
N#CCC(=O)Nc1ccc(C(=O)OCC(=O)c2cc3ccccc3o2)cc1,-36,.,.,-8
CCN(CC(=O)Nc1ccc(NC(C)=O)cc1)CC(=O)Nc1ccc(S(=O)(=O)N(C)C)cc1,-7,99,107,-2
C(=N\N1CCOCC1)/c1nc(-c2ccccc2)n2ccccc12,-26,106,109,-5
